Compound activity (PubChem BioAssay)
HNF4A DNA FP: change in binding of human HNF4 alpha to DNA | AID 1224865 | activity change, % at 10 µM | actives 0.3% (n = 360,000) | HNF4a-FITC DNA binding, fluorescence polarization, 1 h | P41235; in the data active means activity change above about 30%, passing the limit was not always enough;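 further: controls were the assay level and a saturating level of protein; the project sought stronger binding though the title names inhibitors; some compounds called inactive have numbers as strong as hits; positive values seem to mean higher polarization but the record does not say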
Target sequence (P41235 whole entry, looked up): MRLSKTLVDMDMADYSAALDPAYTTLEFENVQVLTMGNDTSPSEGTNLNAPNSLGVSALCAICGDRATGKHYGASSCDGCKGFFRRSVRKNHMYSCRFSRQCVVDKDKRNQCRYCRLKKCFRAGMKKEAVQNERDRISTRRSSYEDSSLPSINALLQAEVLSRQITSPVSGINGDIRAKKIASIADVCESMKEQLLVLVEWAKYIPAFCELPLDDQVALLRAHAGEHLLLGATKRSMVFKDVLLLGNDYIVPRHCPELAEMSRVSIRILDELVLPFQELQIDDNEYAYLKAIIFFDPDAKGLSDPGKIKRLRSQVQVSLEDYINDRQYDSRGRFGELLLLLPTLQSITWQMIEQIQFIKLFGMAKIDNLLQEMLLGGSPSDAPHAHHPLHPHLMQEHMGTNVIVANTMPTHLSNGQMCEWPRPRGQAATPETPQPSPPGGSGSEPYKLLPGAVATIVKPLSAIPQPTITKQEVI
RanGTP-Imp inh: inhibitors of RanGTP-importin-beta interaction, primary screen, biochemical, FRET, CFP-Ran, YFP-importin-beta, homogeneous | actives 1.1% (n = 300,000) | inhibition, % (no concentration beside the values) | cell-free CFP-Ran/YFP-importin-beta FRET ratio;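 active means most replicates above 15%; inconclusive means exactly half above 15%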;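 further: 0% = DMSO wells and 100% = Ran loaded with GDP instead of GTP; wells of about 40 µL received 100 nL stock; the first replicate is given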
ALR H2O2 inh: inhibitors of human sulfhydryl oxidase ALR; P55789; purified ALR, DTT oxidation, H2O2 HRP-luminol luminescence; inhibition, % (no concentration beside the values); actives 3.8% (n = 290,000); AID 485317;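 active means mean and each replicate at 75% or more; inconclusive means only one of the two met; inactive means neither met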;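 further: stock transfer was 7.5 nL into about 7.5 µL; 0% = neutral wells and 100% = wells with inactivated enzyme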
LANA-H2A inh: blocks KSHV LANA binding to histone H2A/H2B | actives 0.6% (n = 320,000) | inhibition, % (concentration not given with the values) | cell-free LANA-H2A/H2B peptide, fluorescence polarization; in the data active means inhibition mostly above about 10%, no sharp cut-off; inactive means mostly below about 6.7%;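 further: stock transfer was 7.5 nL into about 10 µL; 0% = median of vehicle wells and 100% = median of positive control wells; one replicate is shown; the record names a cut of 25% in any replicate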
Calb FLC: affects C. albicans growth with fluconazole; C. albicans CaCi-2 (fluconazole-resistant clinical isolate) + fluconazole, Alamar Blue growth, 48 h; growth inhibition, % (no concentration beside the values); actives 0.57% (n = 300,000);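 active means most replicates above 75%; inconclusive means exactly half above 75%; inactive means most below 75%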;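 further: all wells also contain fluconazole at 8 µg/ml as a sub-toxic cotreatment; 0% = median of DMSO wells and 100% = median of geldanamycin control wells; wells of about 8 µL received 7.5 nL stock; the first replicate is given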
Beta2AR agonist: agonists of human beta-2 adrenergic receptor inducing internalization; P07550; Am2.2-beta2AR cells, FAP receptor internalization, flow cytometry; reference of the scale not given here; response, % (no concentration beside the values); actives 0.43% (n = 340,000);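 active means response above a set limit, near 3 SD of response in nonfluorescent compounds, cut at about 42% in these data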;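 further: stock transfer was 100 nL into about 11 µL; a reference agonist was the positive control; negative values mostly stem from fluorescent compounds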
Target sequence (P07550 whole entry, looked up): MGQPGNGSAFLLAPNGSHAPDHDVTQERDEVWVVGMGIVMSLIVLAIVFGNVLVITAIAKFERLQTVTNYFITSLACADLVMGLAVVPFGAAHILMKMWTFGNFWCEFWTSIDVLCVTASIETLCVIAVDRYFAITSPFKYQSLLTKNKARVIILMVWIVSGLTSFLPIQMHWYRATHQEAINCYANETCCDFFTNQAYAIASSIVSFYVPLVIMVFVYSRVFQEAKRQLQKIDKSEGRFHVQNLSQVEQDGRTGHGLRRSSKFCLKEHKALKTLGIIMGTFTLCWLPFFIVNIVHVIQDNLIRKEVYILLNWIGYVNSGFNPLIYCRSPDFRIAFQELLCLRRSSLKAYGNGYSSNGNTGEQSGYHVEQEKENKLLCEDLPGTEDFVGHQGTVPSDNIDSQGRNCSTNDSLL
Vif TR-FRET: HIV-1 Vif–A3G interaction blockers – biochemical, TR-FRET, GST-Vif 1-94, biotin-A3G peptide, dose response retest, primary screen (AID 1117319). TR-FRET GST-Vif / biotin-A3G peptide binding; higher % means a stronger effect; test concentration not given here; strong numbers were not always called active. one-dose inhibition, %; IC50 in µM for titrated hits. actives 0.57% (n = 260,000);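 active means above the screen mean plus three standard deviations and confirmed in dose response; inconclusive means results disagree or hit not tested in dose response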;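 further: Vif residues 1-94 fused to GST binding biotinylated APOBEC3G peptide 110-148; 0% = full assay without inhibitor and 100% = GST in place of GST-Vif; retest series ran down from 100 µM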
The depositor's hits bear a star; ? = inconclusive; . = no result given; & = joins results of further samples.

molecule | RanGTP-Imp inh | Vif TR-FRET | ALR H2O2 inh | HNF4A DNA FP | Calb FLC | Beta2AR agonist | LANA-H2A inh
C=CC[C@@H](CC(=O)N[C@@H](CO)Cc1ccccc1)C(=O)N[C@H](COC(=O)[C@@H](CC=C)CC(=O)OC(C)(C)C)Cc1ccccc1 | . | -6% | 0 | 1.9 | . | 3 | -436
N#Cc1cnc(SCC(=O)NNC(=O)COc2cccc3ccccc23)nc1N | -0.7 | . | . | 13 | -4 | -1 | 4.2
CC1CCN(C(=O)CSc2nnc(Cc3ccccc3)o2)CC1 | -3.4 | -3% | -1 | 3.7 | 7 | 3 | -6.1
Cc1cc2c(cc1C)CSC(c1ccccc1OC(=O)C(C)(C)C)SC2 | 1.4 | -3% | . | -1.8 | 10 | -5 | 0.4
CCn1c(SCC(=O)N/N=C/c2ccccc2OCC(=O)O)nnc1-c1ccc(C(C)(C)C)cc1 | -1.9 | -6% | . | 1.7 | -21 | -2 | -1.4
COc1cc(C2CC(=O)Oc3cc4c(cc32)OCO4)cc(OC)c1OC (centres undefined) | . | 7% | . | 2.0 | . | 2 | .
CCn1c(SCC(=O)Nc2ccccc2Br)nnc1-c1cnccn1 | 2.4 | . | 5 | 9.0 | 1 | -10 | 10
Cc1cc(OCC(=O)NCCCn2ccnc2)c2c(C)c(C)c(=O)oc2c1 | -0.6 | . | -5 | -2.2 | -3 | -3 | -1.5
COc1ccc(C(=O)Nc2nc3cc4c(cc3s2)OCO4)c(OC)c1 | 6.1 | . | 1 | -1.2 | -9 | 4 | 2.5
CCOc1ccc2[nH]c3c(=O)n(CCC4=CCCCC4)cnc3c2c1 | 1.4 | 5% | 5 | 2.3 | 3 | -6 | -4.3
CCCC(=O)Nc1ccc2c(c1)nc1n2CCOC1 | 6.3 | 5% | 0 | -2.2 | 6 | -6 | 0.3
COC(=O)c1ccc(NC(=O)COc2ccc(N(C)S(=O)(=O)c3ccc(C)cc3)cc2)cc1 | . | 21% | -12 | 2.8 | . | 3 | 3.0
Cc1ccsc1CNn1cnnc1SCc1ccccc1F | 4.5 | ? | -3 | 0.8 | -1 | 0 | -2.9
C/C(=N\NS(=O)(=O)c1ccc(C)cc1)c1ccc(C)s1 | 1.6 | 7% | -3 | 4.5 | -7 | 5 | 2.5
COc1ccc(S(=O)(=O)N2CCN(C3CCCCCCC3)CC2)cc1 | 1.0 | -3%&-2% | -4 | -2.0&0.5 | -18 | -3&17 | 7.6
CC(=O)c1c(N2CCCC2)nc(=S)n(-c2ccccc2)c1C | -1.7 | 1% | -3 | -0.5 | 0 | 2 | -3.2
CC(=O)c1ccc(NC(=O)C(C)OC(=O)/C=C/c2ccco2)cc1 (centres undefined) | . | -2% | -4 | 2.9 | . | -5 | 0.9
O=C(Nc1nccs1)C1CC(=O)N(CCc2ccccc2)C1 (centres undefined) | . | 11% | . | 2.0 | . | 0 | .
c1cncc(CNc2nc(-c3cccnc3)nc3ccccc23)c1 | -1.5 | 4% | 17 | -0.6 | 1 | -14 | -1.6
CC#CCN1C=C(C(=O)OCC)C(C)N(Cc2ccc(Br)cc2)S1(=O)=O (centres undefined) | . | -5% | . | 2.5 | . | 4 | .
O=C(O)c1cc(-c2cccs2)nn1-c1ccc(F)cc1 | ? | -2% | -29 | -2.3 | 2 | -7 | -0.6
CCC(=O)OCCNc1nc(-c2ccccc2)nc2ccccc12 | -0.3 | -5% | -10 | -3.5 | ? | -10 | -0.7
CCOc1ccc(S(=O)(=O)NC(Cc2c[nH]c3ccccc23)C(=O)O)cc1 (centres undefined) | 0.8 | 1% | . | -1.2 | -6 | 3 | 1.7
CCCOc1ccc(/C(O)=C2/C(=O)C(=O)N(c3cc(C)on3)C2c2ccc(C(=O)OC)cc2)cc1 (centres undefined) | 3.2 | -5% | 57 | -1.0 | 9 | 3 | 2.7
COc1ccc(NC(=O)CCSc2ccc3ccccc3n2)cc1 | 3.5 | -215% | -6 | 0.5 | 2 | -5 | -3.8
CN(C(=O)C1CCCN(S(=O)(=O)c2cccc([N+](=O)[O-])c2)C1)C1CCS(=O)(=O)C1 (centres undefined) | 2.9 | 2% | -8 | 1.0 | 27 | -7 | -6.8
COCCn1c(SCC(=O)Nc2cc(C)cc(C)c2)nc2ccccc2c1=O | 0.4 | . | 1 | -1.6 | 1 | 7 | 3.2
Cc1cccn2c(=O)c3cc(C#N)c(=NC(=O)c4ccccc4)n(Cc4ccco4)c3nc12 | 110* | -3% | 89* | -12&-7.3 | 20 | 14&20 | -1.6
COc1ccc(-c2cc(C(F)(F)F)n3nc(C(=O)N4CCCCC4)cc3n2)cc1OC | 4.9 | -1% | -1 | -0.4 | -5 | -6 | -1.5
O=C(O)/C(=C\c1ccc(Cl)cc1)c1ccc(F)cc1 | -1.4 | . | 5 | 0.8 | 55 | -1 | 3.3
Cc1ccccc1NC(=O)CN1C(=O)N/C(=C\c2ccccc2OCc2ccc(C(=O)O)cc2)C1=O | 0.3 | . | . | -15 | 21 | 2 | 2.5
O=C(COC(=O)c1cccc(S(=O)(=O)N2CCOCC2)c1)Nc1ccc(Cl)cn1 | . | -9% | -3 | 0.3 | . | 9 | 8.4
CCN(CC)c1ccc(C=C(c2nnnn2-c2ccc(C)cc2)c2nnnn2-c2ccc(C)cc2)cc1 | -6.8 | . | -3 | 20 | -11 | -3 | 0.7
COc1ccc(S(=O)(=O)N(Cc2cc3ccc(OC)cc3[nH]c2=O)CC2COCCO2)cc1 (centres undefined) | . | -21%&-11% | 2 | -3.2 | 0 | -9 | -0.5
O=C(NCCCNC(=O)c1ccc(Cl)cc1Cl)c1ccccn1 | 1.0 | . | 1 | 3.5 | 4 | 10 | 2.4
CCCn1cnc2scc(-c3ccc(C)c(C)c3)c2c1=O | -2.2 | . | 1 | 1.2 | 22 | -6 | 0.7
CC1CCCC(NC(=O)COC(=O)c2ccc([N+](=O)[O-])s2)C1C (centres undefined) | . | . | -20 | 2.4 | . | 9 | 1.9
O=C(O)CCC(=O)Nc1ccccc1C(=O)NCCc1ccccc1 | 2.7 | 8% | 12 | 2.3 | -5 | -4 | -3.0
Cc1ccc(Cn2nnc3c(=O)n(CC(=O)NCc4ccco4)cnc32)cc1 | -4.1 | 16% | -3 | -1.2 | -5 | -2 | 14
Cc1ccc(S(=O)(=O)N(C)C)cc1NC(=S)N(CCC#N)Cc1cccnc1 | 1.1 | 8% | -10 | -3.4 | 17 | 5 | 2.7
O=C(Nc1cc(C(F)(F)F)ccc1Cl)c1ccncc1 | 3.9 | -11% | 24 | -2.8 | 9 | -8 | 1.0
CC(=O)Nc1ccc(S(=O)(=O)N2CCN=C2C)cc1 | -3.4 | 0% | -6 | -0.9 | 4 | 11 | -4.2
c1ccc2c(c1)Nc1ccncc1S2 | 2.6 | . | 96* | -1.2 | 0 | 0 | -11
CCOC(=O)c1cccc(N2C(N)=NC(N)=NC2(C)C)c1 | 3.2 | 10% | 1 | -0.6 | -3 | 7 | 1.9
C=CCOn1c(=O)c(-c2cc3ccccc3o2)[n+]([O-])c2ccccc21 | -5.3 | 6% | -3 | -9.3 | 10 | 3 | 2.6
O=C(Nc1c(-c2ccccc2)nc2ncccn12)c1cc2ccccc2oc1=O | 2.4 | 20% | -4 | 1.4 | -2 | -17 | 1.9
CC(OC(=O)CC(C)c1ccccc1)C(=O)Nc1ccc(Cl)cn1 (centres undefined) | . | 8% | . | -1.2 | . | 1 | .
CC(C)(C)C(=O)c1cn(CC(=O)NCc2ccc3c(c2)OCO3)c2ccccc12 | 2.1 | 3% | -4 | -4.1 | -4 | 16 | -5.5
Cc1nc2nc(-c3ccc(Cl)cc3)[nH]n2c(=O)c1Cc1ccccc1 | -2.1 | -1% | -7 | -1.3 | -6 | -1 | 0.6
Cc1ccccc1C(=O)NC(CC(C)C)C(=O)NCC(C)(C)N1CCOCC1 (centres undefined) | . | . | -9 | 0.4 | . | -5 | 6.2
CC1(C)SC2c3ccccc3C(=O)N2[C@@H]1C(=O)NCc1ccco1 (some centres undefined) | -0.5 | 14% | -3 | 3.9 | -1 | -10 | 0.4
CN(C)S(=O)(=O)c1cccc(NC(=O)COC(=O)CNC(=O)c2cccc([N+](=O)[O-])c2)c1 | 2.4 | . | -12 | 2.6 | 4 | 4 | -3.5
Cc1ccc(NS(=O)(=O)c2ccc(C)c(NC(=O)COc3ccc4ccccc4c3)c2)c(C)c1 | -0.2 | 4% | -8 | 1.8 | 32 | 6 | 4.4
O=C1c2ccccc2C(=O)N1CCCc1nc(-c2cccnc2)no1 | -1.3 | -8% | . | -3.3 | 6 | -1 | -1.9
COC(=O)c1ccc(C(=O)OC)c(NS(=O)(=O)c2ccc(NC(C)=O)cc2)c1 | ? | 27% | -27 | 3.3 | -1 | -5 | 3.1
Cn1ncc(Br)c1C(=O)N/N=C/c1ccc(OS(=O)(=O)c2ccccc2)cc1 | -2.0 | 21% | -11 | -0.1 | 3 | 1 | 2.2

Next entries follow.
molecule | RanGTP-Imp inh | Vif TR-FRET | ALR H2O2 inh | HNF4A DNA FP | Calb FLC | Beta2AR agonist | LANA-H2A inh
O=C(CSCc1ccc(F)cc1)NCc1cccs1 | -1.1 | -1% | -4 | 1.3 | -26 | 9 | .
COC(=O)[C@@H]1CC[C@H](C)[C@@H](c2ccc(C)cc2)N1C(=O)c1ccc(/C=N/O[C@@H](C)c2cn([C@H](CO)Cc3ccccc3)nn2)cc1 | -5.2 | ? | . | . | 26 | . | 4.0
Cc1cc(CN(C)Cc2cn(C)nc2-c2ccc(Oc3ccccc3)cc2)on1 | 5.5 | 12% | -3 | -0.7 | 6 | -3 | -1.8
O=C(CNS(=O)(=O)/C=C/c1ccccc1)OCC(=O)N1CCC(Cc2ccccc2)CC1 | 1.0 | 25% | -26 | 2.7 | -9 | 4 | 1.0
O=C(Cn1cnc2cc(Cl)ccc2c1=O)Nc1ccc2c(c1)OCO2 | 0.2 | 0% | 8 | 2.8 | 0 | -9 | 3.1
O=C(NCCCc1ccccc1)N1CCOCC1 | 3.4 | -7% | -17 | -1.4 | -8 | -6 | -0.3
Cc1c(-c2ccccc2)[n+](=O)c(-c2ccc(Cl)cc2)c(C)n1[O-] | -1.3 | 5% | 7 | -2.6 | -9 | -4 | 0.4
COc1cc(NC(=O)c2ccc(C)cc2C)ccc1NC(=O)c1cccs1 | 8.8 | . | 4 | 1.3 | 8 | -1 | 2.9
CCC1CCCCN1CCCNC(=O)COc1cc(=O)n(C)c2ccccc12 (centres undefined) | -1.0 | 14% | -1 | -3.8 | -11 | -12 | -0.9
COc1ccccc1-n1c(C)nnc1SCC(=O)Nc1cc(C)cc(C)c1 | -0.6 | 5% | -8 | 1.6 | 12 | -1 | -3.9
O=C(NCc1ccccc1)c1cccc(OCC(=O)N2CCN(C(=O)c3ccco3)CC2)c1 | -0.8 | 2% | -19 | 4.0 | -3 | -2 | 0.5
CN(C)c1ccc(/C=C(\NC(=O)c2ccccc2)C(=O)N/N=C/c2ccc(C(=O)O)cc2)cc1 | -9.9 | . | . | 4.2 | 14 | 2 | 4.3
COc1cc(C(=O)ON=C2C(C)=CC(=O)C=C2C)cc(OC)c1OC | ? | 15% | 99* | 3.9 | 12 | -1 | 0.0
